# Mtb hypoxia inh = reduces hypoxia-regulated biosensor signal in M. tuberculosis; AID 1159583; 0.1% of 300,000 active; M. tuberculosis hypoxia-regulated fluorescent reporter, fluorescence; fluorescence inhibition, % (concentration not given with the values);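 active means 35 to 45% if threefold the growth effect, above 45% if 1.5-fold the growth effect; inactive means the rest, general growth blockers included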;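 further: wells of about 50 µL received 100 nL stock; 0% = vehicle wells and 100% = reference inhibitor wells; whole bacteria with a GFP reporter of the hypoxia response; strong numbers were not always called active; many hits fall short of the cut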
# Sa RN4220 lethal = kills Staphylococcus aureus RN4220. AID 1259311. 0.33% of 330,000 active. inhibition, % (concentration not given with the values). S. aureus RN4220 growth, OD600, 16 h;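 active means z-score of -3 or lower and OD600 up to 0.18 on both plates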;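 further: plate controls were untreated cells for no effect and reference antibiotic for full effect; stock transfer was 100 nL into about 80 µL; one replicate is shown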
# PrP UTR inh = suppresses PrP 5' UTR mRNA reporter expression | cell-based PrP 5' UTR mRNA reporter, plate reader | inhibition, % (no concentration beside the values) | 0.35% of 340,000 active;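 active means every replicate at 50% or more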;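 further: 0 = median of the neutral control wells; tested in H4 reporter cells; numbers are from one replicate; inactives centre near -14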
# BJeLR lethal = BJeLR cell viability loss | inhibition, % (concentration not given with the values) | BJeLR (HRASV12) viability, CellTiter-Glo ATP luminescence, 48 h; reference of the scale not given here | AID 1554 | 0.17% of 300,000 active;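 active means replicate mean above 50%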;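 further: 50 nL library stock added to about 25 µL; numbers are from one replicate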
# Sa ugtP lethal = kills S. aureus RN4220 lacking UgtP; S. aureus RN4220 ugtP deletion, OD600 growth, 16 h; some inactives read as strong as hits; growth inhibition, % (test concentration not listed); 0.54% of 330,000 active;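 active means z-score under -3 and OD600 up to 0.15 on both plates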;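 further: plate controls were untreated wells for no effect and antibiotic for full effect; wells of about 80 µL received 100 nL stock; the first replicate is given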
# Autofluor counter = counter-screen for toxin protease inhibitors: compound fluorescence | compound autofluorescence counterscreen, microsphere flow cytometry; hits give high values | fluorescence intensity (concentration not given with the values) | AID 624483 | 3.1% of 360,000 active;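 active means at least 3 SD above the mean of all compounds, about 16000 in these data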;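 further: 100 nL of 1 mM stock went into each well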
# Mtb hypoxia inh growth = further read-out of Mtb hypoxia inh, marked with its call; growth inhibition, %; measured here: M. tuberculosis growth (absorbance);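 0% = vehicle and 100% = reference antibiotic; read after six days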
# * marks the source's active call; other numbers are inactive results; x = no result given; & = joins results of further samples.
# The line under a structure holds: Mtb hypoxia inh | Mtb hypoxia inh growth | Sa RN4220 lethal | PrP UTR inh | BJeLR lethal | Sa ugtP lethal | Autofluor counter
> CCOC(=O)C1CCN(S(=O)(=O)CCNC(=O)c2ccc3c(c2)OCO3)CC1
→ -7 | 0 | 1.3 | -10 | 3 | 5 | x
> CCOc1ccccc1NC(=S)N1CCN(c2ccccc2)CC1
→ 1 | -8 | 2.0 | -8 | -1 | -1 | 3869
> O=C(Nc1ccc(F)cc1)c1ccccc1
→ -7 | -6 | 4.5 | -63 | 1 | -2 | 8964
> Cc1ccc(-c2nnc(N)s2)cc1
→ 0 | 1 | 5.8 | -41 | 1 | 7 | 2326
> CS(=O)(=O)Nc1ccc(-c2ccc(C=C3SC(N)=NC3=O)o2)cc1
→ 13 | 11 | 2.9 | x | x | -10 | x
> CC(=O)Nc1ccc(NC(=O)COC(=O)COc2ccc3ccccc3c2)cc1
→ 3 | 2 | 6.7 | -16 | x | -10 | 3854
> Cc1ccc2[nH]c3c(c2c1)CC/C(=C/c1ccccc1)C3=O
→ 11 | 11 | 5.8 | -54 | 0 | -9 | 8375
> CN(Cc1ccccc1)C(=O)COC(=O)c1cc(-c2ccc(Cl)s2)nc2ccccc12
→ 12 | 14 | 6.5 | -15 | -10 | 14 | 6332
> COC(=O)CC1C(=O)NCCN1C(=O)c1cc([N+](=O)[O-])ccc1Cl (configuration not stated)
→ 5 | -3 | 4.8 | 13 | 3 | 6 | 3563
> COc1ccc2[nH]c3c(c2c1)CCN1C(=O)N([C@@H](C)C(=O)NC2CCCC2)C(=O)[C@]31C
→ x | x | 5.5 | -14 | -4 | -8 | 6014
> O=c1c2cc(NC(=S)NCc3ccccn3)ccc2nc2n1CCCCC2
→ 6 | 3 | 0.3 | -25 | 6 | 5 | 3907
> O=C(CCC1CCCCC1)Nc1ccccc1O
→ x | x | 18 | -70 | 5 | 4 | 16345*
> COc1ccc(CCc2ccc3ccccc3n2)cc1
→ x | x | 4.5 | -86 | x | 50 | 4243
> CC1=NN(C(C#N)c2ccc(F)cc2)C(c2ccccc2)C1 (configuration not stated)
→ 4 | 1 | 3.1 | -16 | -2 | 5 | 3482
> O=C(Nc1ccc(Br)cc1)NC1CCCCCCC1
→ x | x | -5.1 | -64 | 4 | -18 | 5563
> COc1ccc(NS(=O)(=O)c2cccc(C(=O)N/N=C(\C)c3ccc(-n4ccnc4)cc3)c2)cc1
→ x | x | x | -8 | -1 | x | 2735
> O=C(COC(=O)c1ccc2ccccc2n1)Nc1ccccc1Br
→ 16 | 4 | 2.0 | -7 | x | 0 | 5012
> COc1ccccc1N1CCN(C(=O)CCC(=O)N2CCN(c3ccc(F)cc3)CC2)CC1
→ -3 | 4 | 5.0 | -14 | -1 | 8 | 3088
> COc1cc(C)ccc1OCc1cc(C(=O)N2C[C@H]3CC[C@H]2C3)no1
→ 9 | 5 | 2.9 | -6 | -7 | 8 | 6112
> O=C(COC(=O)Cc1ccc(S(=O)(=O)N2CCOCC2)s1)Nc1ccc([N+](=O)[O-])cc1
→ 2 | 0 | 2.4 | -15 | x | -4 | 3194
> Cn1cc(CN2CCN(Cc3ccc4c(c3)OCO4)CC2)c(-c2ccccc2F)n1
→ 10 | 3 | 5.7 | -16 | 0 | 10 | 1998
> CCn1ccnc1CNC(=O)c1cc(COc2ccc(F)cc2F)on1
→ 5 | 1 | 1.0 | -15 | 3 | 2 | 3652
> CCOc1c(O)ccc(C2NC(=O)NC(C)=C2C(=O)OC)c1[N+](=O)[O-] (configuration not stated)
→ -4 | 0 | -3.3 | -12 | -3 | 0 | 5452
> CCn1c(SCC(=O)NNC(=O)c2ccc(OC)cc2)nnc1C1CC1
→ 0 | -5 | -4.8 | -11 | 3 | -2 | 3671
> COC(=O)c1sc(NC(=S)NC(=O)c2cccc(C)c2)nc1C
→ -1 | 4 | 3.9 | -30 | 9 | 8 | 2191
> Cc1ccc(C(=O)COC(=O)CNC(=O)c2cccs2)cc1C
→ 10 | 7 | 3.6 | -8 | 2 | 1 | 2517
> O=C(CSc1nnc(-c2ccccn2)o1)Nc1cccc(Cl)c1
→ 11 | 17 | 2.2 | -41 | 2 | 2 | 3579
> O=C(NCCc1ccccc1)/C(=C\c1ccc([N+](=O)[O-])cc1)NC(=O)c1ccco1
→ -4 | 2 | 3.4 | -17 | 0 | 6 | 6216
> O=C1OCCN/C1=C\C(=O)c1ccc(Cl)cc1
→ -3 | -3 | 2.1 | x | -4 | 1 | 4739
> COc1ccccc1C(CNC(=O)c1ccc(OCc2c(C)noc2C)cc1)N1CCCC1 (configuration not stated)
→ 4 | 0 | 4.3 | -20 | x | 20 | 15575

# Full records, looked up by structure:
# O=C1OCCN/C1=C\C(=O)c1ccc(Cl)cc1 as listed: Mtb hypoxia inh: -3; Mtb hypoxia inh growth: -3; Sa RN4220 lethal: 2.1; PrP UTR inh: x; BJeLR lethal: -4; Sa ugtP lethal: 1; Autofluor counter: 4739
# O=C(Nc1ccc(Br)cc1)NC1CCCCCCC1 as listed: Mtb hypoxia inh: x; Mtb hypoxia inh growth: x; Sa RN4220 lethal: -5.1; PrP UTR inh: -64; BJeLR lethal: 4; Sa ugtP lethal: -18; Autofluor counter: 5563
# CCOc1c(O)ccc(C2NC(=O)NC(C)=C2C(=O)OC)c1[N+](=O)[O-] (configuration not stated) as listed: Mtb hypoxia inh: -4; Mtb hypoxia inh growth: 0; Sa RN4220 lethal: -3.3; PrP UTR inh: -12; BJeLR lethal: -3; Sa ugtP lethal: 0; Autofluor counter: 5452

# (listing goes on)
mol	Mtb hypoxia inh	Mtb hypoxia inh growth	Sa RN4220 lethal	PrP UTR inh	BJeLR lethal	Sa ugtP lethal	Autofluor counter
CC(=O)N1CCc2c(sc(NC(=O)CCS(=O)(=O)c3ccc(C)cc3)c2C(N)=O)C1	3	13	1.9	-8	5	3	5491
Cc1cc(C)c(NC(=S)NCC2CCN(C(C)c3ccccc3)C2)c(C)c1 (configuration not stated)	-5	9	-1.2	-3	2	-10	4441
Cc1nc(CN2CCCCC2)cc(=O)[nH]1	6	7	5.4	3	-3	9	3081
CN(C)CCN1C(=O)c2oc3ccc(Cl)cc3c(=O)c2C1c1cccc(Br)c1 (configuration not stated)	9	7	1.1	-46	-7	-7	8678
CC(C)(C)NS(=O)(=O)c1ccc(OCC(=O)N2CCN(Cc3ccccc3)CC2)cc1	16	1	11	-18	11	3	3426
COc1cc(C)ccc1OCCOc1c(C)cccc1Cl	x	x	9.4	-37	-2	16	2352
COc1ccc(S(=O)(=O)N2CCCCC2)cc1NC(=O)C1COc2ccccc2O1 (configuration not stated)	-4	-4	-4.1	-24	2	4	4728
COc1ccccc1CNC(=O)C(=O)NCC1OCCN1C(=O)c1cccs1 (configuration not stated)	1	5	4.5	-19	-13	5	7323
COc1ccc(Cl)cc1NC(=O)CN(C)C(C)C(=O)NCC1CCCCC1 (configuration not stated)	4	0	4.0	-21	-8	-9	10107
Cc1ccc(-n2c(SCC(=O)NNC(=S)Nc3ccccc3)nc3ccccc3c2=O)cc1	-3	4	1.6	-14	-18	-8	2215
CCOc1ccccc1NC(=O)CN1CCN(C(=O)C2CCCO2)CC1 (configuration not stated)	x	x	x	-19	1	x	6151
NC(=O)c1cc([N+](=O)[O-])ccc1NCc1cccc([N+](=O)[O-])c1	3	3	9.3	2	x	2	2887
COc1ccc(C2CC(=O)c3c(O)cc(OC4OC(COC5OC(C)C(O)C(O)C5O)C(O)C(O)C4O)cc3O2)cc1O (configuration not stated)	0&0	1&1	8.5&10	x	x	8&2	x
C/C(=N\NC(=O)C(N)=O)c1ccc(O)cc1O	x	x	x	-22	-13	x	4391
Cc1ccc(Cl)cc1N1CCN(C(=O)CSc2ccsc2[N+](=O)[O-])CC1	0	1	7.6	-10	5	-13	8779
COc1ccc(CC(=O)NC(C)C2COc3ccccc3O2)cc1OC (configuration not stated)	12	2	1.7	-22	7	-2	3553
COc1cc(C=NNC(=O)CSc2nc3ccccc3n2C)cc(OC)c1OC	-1	8	7.3	x	x	3	x
Cc1cc(OCc2nc3ccccc3s2)ccc1N	4	4	4.1	-54	-1	0	4306
CN(C)C(=O)c1cn(CCC#N)nc1-c1ccc2ccccc2c1	0	4	2.0	-19	-12	2	3918
CN(C)c1cccc(Oc2nc3c(c(=O)n(C)c(=O)n3C)n2C)c1	11	7	2.4	-18	-2	9	3687

# Some values from the results shown:
# Value of CC(=O)Nc1ccc(NC(=O)COC(=O)COc2ccc3ccccc3c2)cc1 in Mtb hypoxia inh growth: 2
# Value of Cc1cc(OCc2nc3ccccc3s2)ccc1N in PrP UTR inh: -54

# Continued.
mol	Mtb hypoxia inh	Mtb hypoxia inh growth	Sa RN4220 lethal	PrP UTR inh	BJeLR lethal	Sa ugtP lethal	Autofluor counter
COC(=O)c1[nH]c2ccc(C)cc2c1NC(=O)CCN1CCN(Cc2ccc3c(c2)OCO3)CC1	12	13	0.3	-5	-1	-1	22086*
O=S(=O)(Nc1ncccn1)c1ccc(NC(=S)NCc2ccco2)cc1	4	-16	-0.4	-18	-4	2	4185
CC(=NNC(=O)CC(C)C)c1c(C(F)(F)F)[nH]n(-c2nc3ccccc3s2)c1=O	0	16	15	x	x	13	x
CCN(CC)C(=O)CSc1nc(N)c(-c2ccccc2)c(=O)[nH]1	10	1	2.8	-4	2	3	3971
CCCCCCSc1cc(-c2nc3cc(C)ccn3c2NC2CCCCC2)ccc1OC	5	5	1.8	-11	0	-13	15927
O=[N+]([O-])c1ccccc1Oc1ccc(Cl)c2cccnc12	10	17	10	-17	-10	1	3909
COc1cccc(OCC(O)CN2CCC(C)CC2)c1 (configuration not stated)	x	x	-2.0	-5	2	13	2842
COc1ccc(N2CCN(C(CNC(=O)C(=O)NCCC3=CCCCC3)c3ccco3)CC2)cc1 (configuration not stated)	3	7	6.5	-18	-2	26	10262
C=CCn1c(SCC(=O)N(CCC)C2CCS(=O)(=O)C2)nnc1-c1ccccc1OC (configuration not stated)	-2	3	1.1	-6	-1	1	4200
Cn1c(SCC(=O)NC2CCCC2)nnc1-c1ccco1	8	-2	1.9	-5	13	4	5529
CCN1CCN(c2cc(C)c3cc(NC(=O)c4cccc(OC)c4)ccc3n2)CC1	-1	15	5.3	x	5	13	3954
CC1(C)C2([N+](=O)[O-])CN3CN(C2)CC1([N+](=O)[O-])C3	3	-6	7.4	0	-1	9	1935
CC1=C(C(=O)Nc2ccccc2C(=O)NC2CCC(C)CC2)SCCO1 (configuration not stated)	-1	-1	1.4	-1	2	0	5842
O=[N+]([O-])c1ccc(OCCCCN2CCCCC2)cc1	7	4	6.1	-17	2	11	2182
COc1ccc(S(=O)(=O)N2CCN(CC(=O)Nc3cc(OC)cc(OC)c3)CC2)cc1	x	x	1.2	-10	-3	1	2667
COc1ccc(C(=O)C2CCCN(C(=O)C3=CCCC3)C2)cc1OC (configuration not stated)	-10	-9	-2.0	-1	-3	-11	4088
CCc1oc2ccccc2c1C(=O)c1cc(Br)c(O)c(Br)c1	x	x	x	-11&-21	2	x	5501
Cc1ccc(CNC(=O)CCc2cn(C)c3ccccc23)cc1	3	-3	1.4	-20	3	6	4054
COc1ccc(NP(=O)(Oc2ccccc2OC)Oc2ccccc2OC)cc1	-18	-15	4.7	-11	3	-6	2266
COc1cccc(N2CC(C(=O)Nc3ccc(F)cc3)CC2=O)c1 (configuration not stated)	-3	-7	3.8	3	-7	7	4668
CC(C)CC(COc1ccccc1)N1CCN(CC(C)C)CCC1=O (configuration not stated)	7	3	4.5	x	x	3	x
Cc1ccc2nc(SCC(=O)Nc3cccc(S(=O)(=O)NC4=NCCCCC4)c3)[nH]c2c1	10	7	5.2	-7	4	11	x
O=C(CC1C[C@H](C(=O)N2CCCCC2)[C@@]2(CCc3ccccc3)c3[nH]c4ccccc4c3CCN2C1=O)NCCC1=CCCCC1 (some centres not stated)	-3	-2	4.0	-1	x	3	3214
COc1ccc(-c2cc(C(=O)O)[nH]n2)cc1OC	x	x	-1.0	-8	-3	0	4754
COc1ccc(S(=O)(=O)N2CCCCCC2)cc1NC(=O)Cc1n[nH]c(=O)c2ccccc12	8	5	6.0	0	x	3	6970

# High-throughput results from PubChem.
